# AID504770 = E. coli YBA685 growth inhibition, screen for V. cholerae RctB inhibitors. E. coli YBA685 rctB-dependent plasmid, OD600 growth, 3 h; active compounds read low. z-score (concentration not given with the values). AID 504770. hit rate 0.27% among 130,000;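 active = z-score under -2 on both plates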;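 also: wells of about 30 µL received 100 nL stock; score is relative to mean and SD of the test wells; the first replicate is given; strong numbers were not always called active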
# CapD inh = CapD enzyme inhibition. purified CapD enzyme, fluorescence intensity read-out; active compounds read low; some hits fall short of the stated cut. z-score (no concentration beside the values). hit rate 0.23% among 140,000. AID 492967;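 active = z-score under -4 in either of two replicates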;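 also: stock transfer was 100 nL into about 40 µL; score is relative to mean and spread of the plate; one replicate is shown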
# An asterisk follows results filed as active; nt = not tested or not shown.
# Preview (3 entries):
SMILES,AID504770,CapD inh
Cc1ccc(-c2nsc(SCC(=O)NCc3ccc4c(c3)OCO4)n2)cc1,1.55,0.525
Cn1c(-c2cccs2)nc2ccccc21,nt,97.1
CSc1ccccc1C(=O)NC1CCCCC1,0.15,-0.175

# Main list, previewed entries included:
SMILES,AID504770,CapD inh
Cc1ccc(-c2nsc(SCC(=O)NCc3ccc4c(c3)OCO4)n2)cc1,1.55,0.525
Cn1c(-c2cccs2)nc2ccccc21,nt,97.1
CSc1ccccc1C(=O)NC1CCCCC1,0.15,-0.175
Cc1cc(C)c2c(N)c(C(=O)N3CCCc4ccccc43)sc2n1,-0.6,-1.11
COc1c(Cl)cc(C(=O)N(Cc2ccc(N(C)C)cc2)Cc2ccco2)cc1Cl,0.3,0.235
Cc1ccc(C(=O)N/C(=C\c2ccco2)C(=O)N2CCN(c3ccccc3F)CC2)cc1C,nt,0.39
COc1ccc(C(N)CCO)cc1OC (stereo unspecified),-0.5,0.13
CC1(c2ccccc2)CC(C)(C)N(C(=O)Nc2ccc(Cl)cc2)c2ccccc21 (stereo unspecified),nt,0.345
Cc1ccc(OCc2nc(CC(=O)O)cs2)cc1,1.4,nt
N#C/C(=C\Nc1ccccc1F)c1nc(-c2cc3ccccc3oc2=O)cs1,-0.7,1.6
N=C(N)SCCS(=O)(=O)c1ccccc1,0.8,-0.05
Cc1nn(C2CCS(=O)(=O)C2)c2nc(C3CC3)cc(C(=O)NC3CCCCCC3)c12 (stereo unspecified),0.05,nt
COc1ccc2c(c1OC)C(=O)OC2C/C(=N\NC(N)=O)c1ccccc1 (stereo unspecified),-0.55,nt
O=C(c1ccc(F)cc1)N1CCC2(CC1)OCCO2,-1.05,0.08
COC(=O)c1ccc(Cn2cc(Br)cn2)cc1,-0.7,0.315
O=C(NC(C(=O)OCN1C(=O)c2ccccc2C1=O)c1ccccc1)c1ccccc1 (stereo unspecified),-0.65,-0.64
Cc1ccc(S(=O)(=O)C(F)F)cc1,1.85,nt
O=C(CSc1nc(NCC2CCCO2)c2ccccc2n1)NCc1ccco1 (stereo unspecified),nt,0.665
COc1cccc(C2CC(=O)NC(SC)=C2C#N)c1 (stereo unspecified),-0.75,nt
Cc1[nH]c2ccccc2c1C1(O)C(=O)N(C(C)C)c2ccccc21 (stereo unspecified),-0.5,0.845
CC(C)N(Cc1ccccc1)S(=O)(=O)c1ccccc1,0.15,-1.25
C(=C\c1ccccc1)/CSc1nnnn1-c1ccccc1,0.3,nt
COc1ccc(C(=O)NCCN2CCOCC2)c(OC)c1,-0.8,-0.135
CC1(C(=O)Nc2ccccc2N2CCOCC2)Cc2ccccc2C(=O)O1 (stereo unspecified),0.7,nt
N=C1C(c2ccccc2)=C(O)CN1NC(=O)CSc1nc2ccccc2[nH]1,0.65,nt
CC(=O)Oc1cc2c(cc1Br)C1CCC3(C)C(OC(C)=O)CCC3C1CC2 (stereo unspecified),0.35,-0.185
CC(NC(=O)C1C2C=CC(C2)C1C(=O)O)C12CC3CC(CC(C3)C1)C2 (stereo unspecified),-0.7,0.09
Cc1nc(-c2cc(-c3nc(-c4ccc(C(C)(C)C)cc4)no3)no2)cs1,0.35,-1.27
CS(=O)(=O)c1ccc2nc(NC(=S)NC(=O)c3cc4cc([N+](=O)[O-])ccc4s3)sc2c1,nt,-0.125
Cc1c(C(=O)N2CC(C)OC(C)C2)oc2ccccc12 (stereo unspecified),0.5,0.575
CC(=O)Nc1cc2c(cc1[N+](=O)[O-])OCCOc1cc([N+](=O)[O-])c(NC(C)=O)cc1OCCOCCO2,nt,0.13
O=c1cc(Nc2cccc(O)c2)c2ccccc2o1,0.85,nt
CN1C(=O)CC(=O)NC1=O,0.55,nt
Cc1cccc(N=C2NC(=O)/C(=C/c3ccc(F)cc3)S2)c1C,-0.65,-1.47
O=c1c(-c2ccccc2)c(O)c2ccccc2n1-c1ccccc1,1.6,0.6
Cc1cc(Oc2ccc([N+](=O)[O-])cn2)cc(C)c1Cl,nt,-0.21
O=C1/C(=C/c2cccc(F)c2)COc2ccccc21,0.55,nt
COc1cc(C2C(C#N)=C(N)Oc3n[nH]c(-c4ccc5c(c4)OCO5)c32)cc(OC)c1O (stereo unspecified),nt,0.2
CCOc1ccc2nc(SCC(N)=O)[nH]c2c1,-0.45,nt
CCCCNc1ncc2c(n1)c(=O)c(C#N)c1[nH]c3ccccc3c(=O)n12,-0.9,nt
Cn1c(=O)c2c(ncn2CC(=O)NCc2ccco2)n(C)c1=O,-0.1,1.28
Cc1cc(C(=O)Nc2cnn(Cc3ccccc3C)c2)no1,-0.3,-0.535
CCC(=O)Nc1nnc(SCc2cccc(F)c2)s1,0,0.47
COC(=O)c1sc(-c2ccc(Cl)cc2)cc1NC(=O)c1ccc2nsnc2c1,-0.5,0.67
CCOc1ccc(C=C2C(=O)N(CC)C(=S)N(CC)C2=O)c(O)c1,0,nt
O=C(c1ccc2c(=O)n(Cc3ccc(Cl)cc3)c(=S)[nH]c2c1)N1CCC(N2CCCCC2)CC1,nt,-0.65
C(=C\c1ccccc1)/CN1CCNCC1,-0.6,-0.095
Cc1cc(C)nc(SC2CCCCC2NS(=O)(=O)c2ccccc2)n1 (stereo unspecified),-0.25,-0.195
CCc1ccc(N2CN(CCc3ccccc3)CNC2=S)cc1,-0.5,0.12
O=C(CSc1oc(-c2ccccc2)nc1S(=O)(=O)c1ccccc1)Nc1ccc(F)cc1,-0.15,-1.65
COc1cccc(N2CCN(CC(=O)c3ccc4ccn(C(C)=O)c4c3)CC2)c1,0.7,5.25
Cc1cc(C2(c3cc(C)c(N)c(C)c3)CCCCC2)cc(C)c1N,-0.35,-0.265
O=S(=O)(Nc1ccccc1NS(=O)(=O)c1ccc(F)cc1)c1ccc(F)cc1,-0.6,nt
Cc1nn(Cc2nn[nH]n2)c(C)c1Br,nt,-0.22
Cc1cc(C)nc(-n2nc(C)c(C3=CCC(C(C)(C)C)CC3)c2N)n1 (stereo unspecified),-0.7,0.24
O=c1[nH]c2ccccc2nc1-c1cc(F)ccc1NCc1ccccn1,nt,-0.64
CCc1ccc(C2(O)CC(C(F)(F)F)=NN2C(=O)Cc2ccc([N+](=O)[O-])cc2)cc1 (stereo unspecified),nt,-0.66
O=C(O)c1cccc(S(=O)(=O)Nc2ccc(N3CCCCC3)cc2)c1,0.15,nt
Cc1cccc(OCc2cc(=O)n3nc(-c4ccco4)sc3n2)c1C,1.2,1.21
O=c1cc(O)c2sc(Nc3ccc(F)cc3)nc2[nH]1,2.2,-0.19
# Continued:
SMILES,AID504770,CapD inh
CCOc1ccc(C(=O)Nc2nc3cc4c(cc3s2)OCO4)cc1,0.1,nt
Cc1cc(NC(=O)C2CCC2)ccc1Br,0.5,-1.31
COCc1nc2ccccc2n1C(C)c1ccccc1 (stereo unspecified),-0.65,0.445
N=C1S/C(=C\c2ccc(-c3cccc(F)c3)o2)C(=O)N1c1nonc1N,nt,-1.46
CCN(CCOC(=O)NCCc1c[nH]c2ccccc12)c1ccc(N=Nc2ccc([N+](=O)[O-])cc2)cc1,nt,-0.73
COc1ccc(-c2nc3ccc(Cl)cc3n2OCc2ccc(C)cc2)cc1,nt,0.77
O=C(/C=C/C(=O)N1CCOCC1)Nc1nccs1,-0.3,nt
c1ccc(CN2CCc3nc4ncccc4cc3C2)cc1,nt,1.99
N#CCN(CC#N)C(=O)C(Sc1ccccc1)c1ccccc1 (stereo unspecified),0.8,-0.31
O=C(O)CSCC(=O)Nc1ccc(Cl)cc1,-0.15,nt
NNc1ccc2nncn2n1,2.25,-0.925
CNc1oc(-c2ccc(Cl)cc2)nc1P(=O)(c1ccccc1)c1ccccc1,nt,-0.385
COc1ccc(C(=O)NCC(=O)O)cc1,-0.7,-0.26
O=C(c1cccc2cccc(O)c12)N1CCCCC1,-0.4,-0.235
O=C(Cn1cnc2sc3c(c2c1=O)CCCC3)NCC(=O)N1CCN(Cc2ccc3c(c2)OCO3)CC1,nt,-0.735
N#C/C(N=Nc1ccc(C(F)(F)F)cc1)=N\Nc1ccc(C(F)(F)F)cc1,nt,0.79
O=C1CN(C(=O)c2cc([N+](=O)[O-])c(Nc3cccc(C(F)(F)F)c3)c([N+](=O)[O-])c2)c2ccccc2N1,nt,-0.59
COC1=CC(=O)OC12CCCCC2,-0.8,0.37
Cc1sc2nc(-c3ccccc3Cl)n(CC(=O)Nc3ccc(N(C)C)cc3)c(=O)c2c1C,nt,-1.03
Cc1cc(C)cc(NC(=O)CS(=O)(=O)c2cccc3nsnc23)c1,-0.15,0.62

# Retrieved one by one from the entries so far (2):
SMILES,AID504770,CapD inh
COc1ccc(C(=O)NCC(=O)O)cc1,-0.7,-0.26
COc1ccc(C(N)CCO)cc1OC (stereo unspecified),-0.5,0.13

# Later entries
SMILES,AID504770,CapD inh
COc1ccc2c(c1)C(=NNC(N)=O)c1cc(OC)ccc1-2,nt,0.59
O=C(/C=C/c1cc2c(cc1Br)OCO2)NCc1ccc(Cl)cc1,nt,1.69
CN(Cc1ccccc1F)c1ccc(S(=O)(=O)N2CCCC2)cn1,-0.5,nt
Cc1ccc(C(=O)Nc2c(C(N)=O)oc3ccccc23)cc1C,-0.45,3.29
Cc1ccc(Cl)cc1NC(=O)COC(=O)C1CCCC1,-0.8,-0.775
S=C(NCc1ccc(Cl)cc1)N1CCN(Cc2cccc(Cl)n2)CC1,nt,-0.365
O=C(O)Cc1cc(=O)[nH]c(=O)[nH]1,-0.45,nt
CC1=C(C#N)C(c2ccc(O)cc2Cl)C(C#N)=C(C)N1,-0.25,21.7
CCCCCCC(=O)OC1CCC2(C)C(=CCC3C2CCC2(C)C(C(C)CCCC(C)C)CCC32)C1 (stereo unspecified),nt,0.105
C=CCN1C(=O)c2ccc(C(=O)OCC(=O)c3cc4ccccc4o3)cc2C1=O,-0.7,nt
CCOC(=O)CCCc1ccc(/C=C/C(=O)O)s1,-0.55,-1.29
CC(=O)N1CCc2cc(Br)cc(S(=O)(=O)N(C)Cc3ccccc3)c21,nt,0.575
CN(C)c1ccc(C2C3=C(CC(C)(C)CC3=O)Nc3ccccc3N2C(=O)c2ccccc2)cc1 (stereo unspecified),nt,-0.25
CN(C(=O)c1cc(-c2cccs2)nc2ccccc12)c1ccccc1,-0.2,2.84
CN1CCC(=C2c3ccccc3C=Cc3ccccc32)CC1,nt,0.47
CC1CCC(C(=O)NC(C(=O)Nc2ccc(F)c(Cl)c2)C(C)C)CC1 (stereo unspecified),1.05,-0.935
CC(C)c1ccc2oc3nc(N)c(C#N)cc3c(=O)c2c1,-0.15,3.29
N#Cc1cccn1Cc1ccc(F)cc1Cl,-0.15,0.2
CC(C)N(CC(N)=O)Cc1cccc2ccccc12,-0.8,nt
CN(C)C(=O)COc1cccc2ccccc12,1.55,0.25
Cc1cc(C(=O)Nc2nccs2)c(C)s1,-0.4,nt
NC(=O)c1cc(-c2csc(=NC3CC3)n2/N=C/c2ccccn2)ccc1O,-0.65,nt
CCCS(=O)(=O)N1CCCC1C(=O)O (stereo unspecified),0.4,nt
O=C(/C=C/c1ccco1)NC(c1ccccc1)c1ccccc1,-0.05,-0.95
Cc1ncc(CSc2ccccc2N=Cc2cc(Cl)cc(Cl)c2O)c(CO)c1O,-0.35,0.295
C=Cc1cccc(NC(=O)c2cccs2)c1,-0.5,-0.375
CCCCOc1cc(C)cc2oc(=O)c3c(c12)CCCC3,nt,8.82
O=C1C2C(c3ccc(Cl)cc3)OC3(C(=O)c4ccccc4C3=O)C2C(=O)N1C1CCCCC1 (stereo unspecified),nt,-0.645
COc1ccc(CC(=O)O)c(C(=O)O)c1,0.4,nt
Cc1cc(C(=O)N2CCC(C(=O)O)CC2)c(C)o1,-0.8,0.57
CCCc1oc2c(cc(NS(=O)(=O)c3ccc(Cl)c([N+](=O)[O-])c3)c3ccccc32)c1C(=O)OCC,nt,-1.29
N#Cc1cc(C(=O)c2cc(Cl)ccc2O)c[nH]c1=O,-0.5,nt
CCCC(=O)N(Cc1ccccc1)C(C)C,0.7,0.495
CC1CC(C)(C)Nc2ccc(OC(=O)c3ccccc3)cc21 (stereo unspecified),-0.4,-0.635
CC(C(=O)NC(C)(C)C)n1c(C(F)(F)F)nc2ccccc21 (stereo unspecified),0.65,0.49
COc1ccc(C2C=C(C)Nc3nc(C(F)(F)F)nn32)cc1 (stereo unspecified),nt,8.11
Cn1c(=O)n(C)c2cc(/C=C(/C#N)C(=O)NCc3ccco3)ccc21,0.45,nt
CC1Cc2ccccc2N1C(=O)COC(=O)c1ccc(Cl)cc1 (stereo unspecified),-0.2,nt
CN1c2ccccc2C(=O)NC1c1ccc([N+](=O)[O-])s1 (stereo unspecified),nt,-2.38
CCS(=O)(=O)NC1CCN(Cc2ccccc2)CC1,-0.05,nt
Cc1ccc(-c2csc(-c3ccccc3)n2)c(C)c1,nt,1.54
Fc1ccc(N2COc3cc4c(cc3C2)OCO4)cc1,-0.2,-1.36
O=C(O)c1ccc(C(=O)c2ccc3c(c2)C(=O)N(CC2CCCO2)C3=O)cc1 (stereo unspecified),-0.1,-0.06

# As a short view, part of the list above.
SMILES,AID504770,CapD inh
NNc1ccc2nncn2n1,2.25,-0.925
CNc1oc(-c2ccc(Cl)cc2)nc1P(=O)(c1ccccc1)c1ccccc1,nt,-0.385
COc1ccc(C(=O)NCC(=O)O)cc1,-0.7,-0.26
O=C(c1cccc2cccc(O)c12)N1CCCCC1,-0.4,-0.235
O=C(Cn1cnc2sc3c(c2c1=O)CCCC3)NCC(=O)N1CCN(Cc2ccc3c(c2)OCO3)CC1,nt,-0.735
N#C/C(N=Nc1ccc(C(F)(F)F)cc1)=N\Nc1ccc(C(F)(F)F)cc1,nt,0.79

# Structural class, the entries above with a tert-butyl group
SMILES,AID504770,CapD inh
Cc1nc(-c2cc(-c3nc(-c4ccc(C(C)(C)C)cc4)no3)no2)cs1,0.35,-1.27
Cc1cc(C)nc(-n2nc(C)c(C3=CCC(C(C)(C)C)CC3)c2N)n1 (stereo unspecified),-0.7,0.24
CC(C(=O)NC(C)(C)C)n1c(C(F)(F)F)nc2ccccc21 (stereo unspecified),0.65,0.49

# Screening data as filed in PubChem.
